HSV replic up – enhancers of HSV replication in host cells, fold increase, host cell viability; HSV replication augmentation in cells; 220,000 compounds, 0.005% hits; maximum fold increase; AID 1956, 2009;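 active = peak rise of 1.5-fold or more in the series; tested in PC3 cells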;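 also: first round at 10 µM; read as green reporter fluorescence; hits show the peak of a series up to 25 µM; 1 = signal of infected wells without compound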
INS promoter inh – inhibitors of insulin promoter-driven GFP, primary screen, imaging, TRM-6 cells (human fetal islet line), eGFP reporter, cell count. AID 1273, 2008. inhibition, % at 2 µM. 130,000 compounds, 0.9% hits. reporter expression induced with tamoxifen;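 active = inhibition above the mean plus 3 SD, with well images judged a real hit on visual review, cut at about 60% in these data, passing the limit was not always enough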
PKD1 inh – inhibitors of human PKD1 kinase, biochemical, fluorescence polarization; PKD1 kinase fluorescence polarization assay; AID 797, 2007; 200,000 compounds, 0.056% hits; inhibition, %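 (about 10 µM by stock and volumes)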;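 active = inhibition of 50% or more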;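 also: controls were vehicle for no effect and a reference inhibitor for full effect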
Target sequence (Q15139 whole entry, looked up): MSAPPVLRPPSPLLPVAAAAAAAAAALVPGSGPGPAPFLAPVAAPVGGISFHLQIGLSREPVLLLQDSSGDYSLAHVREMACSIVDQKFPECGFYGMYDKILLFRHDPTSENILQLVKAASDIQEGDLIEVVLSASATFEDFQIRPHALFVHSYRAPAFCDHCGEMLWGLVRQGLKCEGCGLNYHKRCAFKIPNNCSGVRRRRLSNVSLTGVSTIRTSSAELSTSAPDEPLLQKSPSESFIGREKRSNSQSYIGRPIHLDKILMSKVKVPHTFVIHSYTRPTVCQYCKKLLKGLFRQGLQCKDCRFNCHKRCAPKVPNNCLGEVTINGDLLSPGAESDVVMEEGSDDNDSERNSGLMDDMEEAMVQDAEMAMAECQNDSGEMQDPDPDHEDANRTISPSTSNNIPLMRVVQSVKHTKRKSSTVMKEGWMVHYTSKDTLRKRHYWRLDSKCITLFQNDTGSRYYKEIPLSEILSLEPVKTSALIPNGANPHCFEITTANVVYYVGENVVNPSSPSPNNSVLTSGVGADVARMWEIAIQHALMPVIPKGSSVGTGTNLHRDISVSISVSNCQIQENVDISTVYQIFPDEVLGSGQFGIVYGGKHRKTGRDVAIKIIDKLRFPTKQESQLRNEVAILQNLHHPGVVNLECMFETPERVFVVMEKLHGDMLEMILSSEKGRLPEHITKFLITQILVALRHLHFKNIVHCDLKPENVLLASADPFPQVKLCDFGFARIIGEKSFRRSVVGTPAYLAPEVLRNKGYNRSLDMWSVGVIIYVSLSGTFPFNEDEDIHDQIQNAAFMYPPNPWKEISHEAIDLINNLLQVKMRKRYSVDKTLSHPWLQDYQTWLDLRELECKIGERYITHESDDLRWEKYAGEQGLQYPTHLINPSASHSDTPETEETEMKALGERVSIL
GALR2 ag – GALR2 receptor agonists, primary screen, cell-based | GALR2-expressing cells, agonist activation read-out | activation, %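 (tested at 5 µM)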 | 140,000 compounds, 0.48% hits | AID 803, 2007 | Galanin receptor type 2 (Homo sapiens), O43603;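 active = above mean plus 3 SD of all compounds, about 5% in these data, not always enough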;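 also: 0% = vehicle buffer wells and 100% = reference agonist at full effect; tested in CHO reporter cells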
RGS16-Gao – modulators of RGS16 binding to Galphao, primary screen, biochemical, human proteins, multiplexed bead flow cytometry; bead-based flow cytometry RGS16-Galphao binding, fluorescence; actives lie on both sides; binding response (% of control), % at 10 µM; 220,000 compounds, 0.38% hits;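 active = below 25% or above 175%, edge rows of some plates excepted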;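 also: Galphao activated by GDP with aluminum fluoride before binding; 100% = wells without compound and 0% = beads without RGS; some results beyond the cut were filed as inactive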
INS promoter inh cell count – second read-out of INS promoter inh, no call of its own (marks repeat the call); normalized cell count, %; measured here: cell count, toxicity; reference of the scale not given here;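 cells exposed to compound for 48 h; stained nuclei by imaging scaled within each plate; lower means fewer cells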
HSV replic up primary fold – further read-out of HSV replic up, marked with its call; fold increase; compound at 10 µM; measured here: primary screen fold increase 10 uM; tested in PC3 cells;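 GFP signal in the first replicate; 1 = infected wells without compound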
* marks the source's active call; other numbers are inactive results; i = inactive; nt = no result given; & = joins results of further samples. An unsorted share of the library, and some 1.2% of all compounds hit somewhere here.

SMILES	HSV replic up	HSV replic up primary fold	INS promoter inh	INS promoter inh cell count	PKD1 inh	GALR2 ag	RGS16-Gao
Cc1c(/N=C/c2ccco2)n(Cc2ccccc2)c2ccccc12	i	0.72	nt	nt	-5	0.1	92
CC/C(=N\NC(=O)C(N)=O)c1ccccc1O	i	0.96	-69	83	0	-1.5	96
CCOC(=O)c1c(NC(=O)CSc2ncnc3ccccc23)sc(C(C)=O)c1C	i	0.99	8	123	-2	-1.2	87
Cc1ccc(N2C(=O)N(c3ccc(C)cc3)C3CS(=O)(=O)CC32)cc1 (stereo unspecified)	i	0.98	nt	nt	-5	nt	98
Cc1[nH]c(=O)[nH]c(=O)c1S(=O)(=O)N1CCCC(C(=O)NCCC2=CCCCC2)C1 (stereo unspecified)	i	0.98	-6	93	2	nt	102
COC(=O)c1sccc1-c1ccc(/C=N/OC(=O)c2cccs2)o1	i	0.9	nt	nt	nt	nt	93
O=C(CSc1nnc(Cc2ccccc2)n1Cc1ccco1)NC1CCCC1	i	1	-23	92	-7	-1.4	100
CC#CCN1c2ccccc2[C@]23C[C@@H](C(=O)OC)N(C(C)=O)C2=NC(C(=O)OC)=C(C(=O)OC)[C@H]13	i	0.6	nt	nt	nt	nt	98
CC(C)Sc1nc2c(c(=O)[nH]c(=O)n2C)n1CCc1ccccc1	i	1.1	-13	115	-7	3.5	99
O=C(Nc1ccccc1)N(CCc1ccncc1)C1CCCCC1	i	0.98	nt	nt	-13	-4.4	nt
OC(COCc1ccccc1)CN1CCN(Cc2ccc3c(c2)OCO3)CC1 (stereo unspecified)	i	1.1	nt	nt	-6	nt	99
Cc1ccsc1/C=N/NC(=O)CN1CCN(Cc2ccccc2)CC1	i	1.1	nt	nt	nt	nt	101
COc1cccc(/C=N/N2CCN(c3ccncc3S(=O)(=O)N3CCCCC3)CC2)c1	i	1	-46	109	-2	0.3	95
O=C(CN(Cc1ccccc1)C(=O)CCC(=O)Nc1nccs1)NCc1ccco1	i	0.86	-5	85	-4	-0.4	99
O=C(C1CC1)N1CCC(C(O)(c2ccccc2)c2ccccc2)CC1	i	0.73	-51	71	-8	-2.3	104
Cc1ccc(N=C(NO)c2nonc2N)c(C)c1	i	1	38	63	-4	-1.1	100
O=C(Nc1ccc(F)cc1)c1cccnc1N1CCOCC1	i	1.1	11	44	-5	1.0	102
Cc1nn(CCC#N)c(NC(=O)c2ccc(Cl)cc2Cl)c1P(=O)(Nc1ccc([N+](=O)[O-])cc1)N1CCOCC1 (stereo unspecified)	i	0.93	-21	79	1	-1.1	101
Cc1nn(C)c(C)c1-c1c(C#N)c(N)nc2c1CCCCCC2	i	1	nt	nt	13	-1.5	103
O=C1C=C(NCc2ccccc2)c2ccccc2C1=O	i	0.77	nt	nt	2	nt	100
COC(=O)c1scc(S(=O)(=O)c2ccccc2)c1N	i	0.92	nt	nt	4	nt	100
Cn1c(=NC(=O)CSCC(=O)N2CCCC2)sc2ccccc21	i	0.97	38	78	7	-2.7	99
COc1cccc(C2N(c3ccccn3)C(=O)C3CCCN32)c1OC (stereo unspecified)	i	0.93	nt	nt	-4	-4.3	114
CCCc1c(C(=O)Nc2ccc(C(F)(F)F)cc2)cnn1-c1ccccc1	i	0.94	nt	nt	nt	nt	101
Cc1ccc(/C=N/n2cnnc2)s1	i	0.99	-36	105	-8	-2.7	84
FC(F)(F)c1ccc(C2NCCc3sccc32)cc1 (stereo unspecified)	i	0.96	nt	nt	-2	nt	103
CCOc1ccc(-n2nnnc2SCC(=O)NNC(=O)c2ccco2)cc1	i	1.2	nt	nt	4	nt	106
Cc1ccc(-c2nc3c(c(=O)c4ccccc4n3C)c(=O)n2-c2ccccc2)cc1	i	1	-10	92	-3	0.2	101
CC1=C(C(=O)N2CCCC(C(=O)c3cccc4ccccc34)C2)OCCO1 (stereo unspecified)	i	0.97	nt	nt	-2	nt	98
CC(=O)c1cccc(NC(=S)NC(=O)C(C)C)c1	i	0.91	-10	148	-7	-1.7	100
O=C(CCCOc1ccccc1)Nc1ccc(Br)cc1	i	1.1	43	162	-4	-0.7	nt
Cc1cccc(CN2CCN(Cc3cccc(-n4cccn4)c3)CC2CCO)n1 (stereo unspecified)	i	1	nt	nt	1	nt	100
COc1ccc(/C=N/NC(=O)c2nc(-c3ccccc3)cc(-c3ccccc3)n2)cc1OC	i	0.88	nt	nt	3	-2.8	103
COCCCNC(=O)C1CCN(C(=O)Nc2ccc(Cl)cc2)CC1	i	0.79	16	110	2	0.2	102
O=C(OCc1ccc(Cl)c(Cl)c1)c1ccccn1	i	0.92	nt	nt	4	-1.9	98
Cc1ccc(N(CC(=O)NCc2cccs2)S(=O)(=O)c2cccs2)cc1	i	0.86	nt	nt	-7	-0.4	101
O=C(CCCl)N1CCCC2(CCCCC2)C1	i	1.1	nt	nt	nt	nt	89
C=CCN(CC=C)CC(=O)Nc1ccc(S(N)(=O)=O)cc1	i	0.98	-5	106	-8	-2.6	101
CCOC(=O)c1c(/N=C/C2C(=O)CC(C)(C)CC2=O)sc2c1CCCC2	i	0.96	nt	nt	4	nt	95
COc1ccc(NC2c3ccccc3C(=O)N2Cc2ccco2)cc1OC (stereo unspecified)	i	1.1	nt	nt	-5	-0.6	98
CC1CCN(S(=O)(=O)c2ccc(C(=O)NCc3ccco3)cc2)CC1	i	0.97	nt	nt	-4	nt	105
CCOc1ccccc1-c1cc(-c2ccccc2)nc2c1c(=O)n(C)c(=O)n2C	nt	nt	-25	142	7	-3.7	105
CCCCCNc1nc2ccccc2nc1NS(=O)(=O)c1cccs1	i	0.85	-25	91	-8	-1.6	106
CSC1CCCCC1(O)CSc1nc2c(cc1C#N)CCCC2 (stereo unspecified)	i	1	8	99	-1	-1.4	103
CCn1nc(C)c(Br)c1C(=O)Sc1ccccc1Cl	i	0.98	nt	nt	nt	nt	95
COCCN(C(=O)/C=C/c1ccccc1)c1c(N)n(Cc2ccccc2)c(=O)[nH]c1=O	i	0.96	-18	96	-4	nt	90
CC(C)NC(=O)NC(=O)COC(=O)Cc1c(F)cccc1Cl	i	0.86	58	93	-5	nt	105
CCC1=C/C(=C/c2sc3ccccc3[n+]2CC)CC(C)(C)C1	i	0.91	-19	108	-4	nt	84

Arranged by the number under RGS16-Gao (descending): some entries from above.
SMILES | RGS16-Gao
FC(F)(F)c1ccc(C2NCCc3sccc32)cc1 (stereo unspecified) | 103
Cn1c(=NC(=O)CSCC(=O)N2CCCC2)sc2ccccc21 | 99
COc1cccc(/C=N/N2CCN(c3ccncc3S(=O)(=O)N3CCCCC3)CC2)c1 | 95

(list continues)
SMILES	HSV replic up	HSV replic up primary fold	INS promoter inh	INS promoter inh cell count	PKD1 inh	GALR2 ag	RGS16-Gao
O=C(Nc1ccc(-n2cnnn2)cc1)C1CCCCC1	i	0.88	-12	94	-5	-2.2	104
Cc1ccccc1C(=O)N/N=C/c1ccc(OCC(=O)N2CCCCC2)cc1	i	0.69	nt	nt	-9	-2.9	105
CCCn1c(NCc2cccc(OC)c2OC)nc2ccccc21	i	0.72	-10	165	-4	-0.7	178
Cc1ccc(-c2noc(CN(C)C(=O)Nc3ccc(F)cc3)n2)cc1	i	0.94	nt	nt	-6	nt	101
O=C1CN2NC(=S)N(c3ccc(Cl)cc3)C2=CN1c1ccc(Cl)cc1	i	0.94	nt	nt	7	nt	98
CCCC(=O)NC(=S)N1CCN(c2ccc([N+](=O)[O-])cc2)CC1	i	0.89	-6	111	5	-1.1	39
O=c1[nH]c(=S)[nH]c(O)c1N=Nc1ccc(-c2ccccc2)cc1[N+](=O)[O-]	i	0.87	nt	nt	-3	nt	104
CC(=O)Nc1ccccc1-c1nc2ccc(C(=O)N3CCN(c4cccc(C)c4)C(C)C3)cc2[nH]c1=O (stereo unspecified)	i	1.1	nt	nt	-2	1.1	79
CCn1c(CSc2nc3ccccc3s2)nnc1SCC(=O)c1ccc2c(c1)OCCO2	i	1	-67	120	2	-0.9	103&103
Cc1nn(CC(=O)Nc2nnc(CC(=O)N3CCCC3)s2)c(=O)c2ccccc12	i	0.99	31	98	-6	-1.2	nt
COc1ccccc1-c1c(C#N)c(N)nc2c1CCC2	i	0.76	nt	nt	nt	nt	101
CCN1C(=O)C2(C(C(=O)c3ccc(C)o3)=C(O)C(=O)N2CCCN(C)C)c2ccccc21 (stereo unspecified)	i	0.98	nt	nt	nt	nt	114

Of the compounds above, 2 have a CF3 group:
SMILES	HSV replic up	HSV replic up primary fold	INS promoter inh	INS promoter inh cell count	PKD1 inh	GALR2 ag	RGS16-Gao
CCCc1c(C(=O)Nc2ccc(C(F)(F)F)cc2)cnn1-c1ccccc1	i	0.94	nt	nt	nt	nt	101
FC(F)(F)c1ccc(C2NCCc3sccc32)cc1 (stereo unspecified)	i	0.96	nt	nt	-2	nt	103

(further entries)
SMILES	HSV replic up	HSV replic up primary fold	INS promoter inh	INS promoter inh cell count	PKD1 inh	GALR2 ag	RGS16-Gao
CCOCCOC(=O)C(C)Sc1n[nH]c(=O)[nH]c1=O (stereo unspecified)	i	0.96	nt	nt	-2	-1.4	106
CCCC(c1nnnn1CC(=O)OCC)N(Cc1cc2c(C)cc(C)cc2[nH]c1=O)C1CCCC1 (stereo unspecified)	i	0.91	nt	nt	-4	-1.1	108
COC(=O)c1ccc(OC(=O)CCc2cc(OC)c(OC)c(OC)c2)cc1	i	0.97	11	95	11	nt	103
CC12COC3(C(=O)Nc4nccs4)CC1CCC32C (stereo unspecified)	i	0.88	-6	128	-4	-4.4	72
COc1ccc(CNC(=O)C2CC(c3ccc(C(F)(F)F)cc3)=NO2)cc1 (stereo unspecified)	i	0.93	nt	nt	nt	nt	97
O=C1c2nccnc2C(=O)N1c1ccc(F)cc1	i	1	25	78	-6	nt	114
CC(=O)Nc1ccc(Nc2c([N+](=O)[O-])c(=O)n(-c3ccccc3)c3ccccc23)cc1	i	1.1	nt	nt	-7	nt	109
Cc1ccc(-c2nn(CC(=O)NCCN3CCOCC3)c(=O)c3ccccc23)cc1	i	1	17	113	-6	0.4	107
O=C(N/N=C\c1ccc(Sc2ccccn2)o1)c1cccc(Br)c1	i	0.95	nt	nt	2	-2.8	98
NC(N)=N/N=C/c1ccccc1OC(F)F	i	0.97	nt	nt	1	nt	102
COc1cccc(CN(C)C(=O)Nc2cccc(C(F)(F)F)c2)c1OC	i	0.87	nt	nt	-5	0.1	130
O=C1C=C(NC(=O)Nc2ccc(Cl)c(Cl)c2)CCC1	i	0.99	nt	nt	-3	nt	105
O=C(NC(=S)Nc1ccccc1)c1cncc(C#Cc2ccccc2)c1	i	0.88	nt	nt	nt	nt	102
Cn1cccc1C(=S)N1CCOCC1	i	1.1	4	126	-5	-3.9	103
Cc1ccc(S(=O)(=O)N2C(=O)c3cccc4cccc2c34)cc1	i	1	nt	nt	nt	nt	105
Cc1ccc2cc(C=C(C#N)C#N)c(N3CCCCC3)nc2c1	i	0.99	0	144	-2	-2.2	103
Cc1ccc(N2CCCn3c2cc(C)c(C#N)c3=O)cc1Cl	i	1.1	5	291	-1	0.6	65
Cc1[nH]c2ccc(Br)cc2c(=S)c1C/C=C/Cl	i	1.1	nt	nt	nt	nt	95
O=S(=O)(C(=CNc1ccccc1)S(=O)(=O)c1ccccc1)c1ccccc1	i	0.98	nt	nt	0	-1.0	112
Cc1nc2ccc(NC(=O)c3ccc(S(=O)(=O)N4CCOCC4)cc3)cc2s1	nt	nt	7	197	3	1.1	98
COc1cccc(CNC(=O)C2CCC(CNS(=O)(=O)c3cccc4nsnc34)CC2)c1 (stereo unspecified)	i	1	nt	nt	-19	-3.0	104
CC(C)N1C(=O)CCC1C(=O)N1CCC(Cc2ccccc2)CC1 (stereo unspecified)	nt	nt	45	87	-3	1.6	103
O=C(Cc1ccc(F)cc1)Nc1c2c(nn1-c1cccc(Cl)c1)CS(=O)C2 (stereo unspecified)	i	0.99	5	84	-5	-3.0	101
Cc1cc(=O)[nH]c(Nc2c(C)n(C)n(-c3ccccc3)c2=O)n1	i	0.96	-11	71	-7	-1.1	126
CCOC(=O)c1ccc(N=C2SC(C(=O)NCCc3ccccc3)CC(=O)N2C)cc1 (stereo unspecified)	i	0.97	nt	nt	-4	nt	99
CCCCN(C)C(=O)c1cc2cc([N+](=O)[O-])cc(OC)c2oc1=O	i	1	-27	98	-4	nt	104
COc1ccc(N(CC(=O)Nc2cc(C)cc(C)c2)S(=O)(=O)c2ccccc2[N+](=O)[O-])c(OC)c1	i	1	nt	nt	-1	nt	103
CC(C)(C)c1ccc(CSc2nnc(-c3ccccn3)n2Cc2ccco2)cc1	nt	nt	-16	107	-7	-2.0	100

Compound activity as filed in PubChem.
